Source: PubChem BioAssay
D2 potentiator = potentiates the human D2 dopamine receptor allosterically; P14416; DiscoveRx D2 beta-arrestin cells, luminescence, 90 min; 100% = 57 uM dopamine signal; potentiation, % (test concentration not listed); 0.23% of 360,000 active; AID 624464; active = potentiation of 50% or more; inconclusive = 30% to 50%; inactive = 30% or less;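 note: compound concentration not given in the record; tested on top of an EC20 dose of dopamine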
Target sequence (P14416 whole entry, looked up): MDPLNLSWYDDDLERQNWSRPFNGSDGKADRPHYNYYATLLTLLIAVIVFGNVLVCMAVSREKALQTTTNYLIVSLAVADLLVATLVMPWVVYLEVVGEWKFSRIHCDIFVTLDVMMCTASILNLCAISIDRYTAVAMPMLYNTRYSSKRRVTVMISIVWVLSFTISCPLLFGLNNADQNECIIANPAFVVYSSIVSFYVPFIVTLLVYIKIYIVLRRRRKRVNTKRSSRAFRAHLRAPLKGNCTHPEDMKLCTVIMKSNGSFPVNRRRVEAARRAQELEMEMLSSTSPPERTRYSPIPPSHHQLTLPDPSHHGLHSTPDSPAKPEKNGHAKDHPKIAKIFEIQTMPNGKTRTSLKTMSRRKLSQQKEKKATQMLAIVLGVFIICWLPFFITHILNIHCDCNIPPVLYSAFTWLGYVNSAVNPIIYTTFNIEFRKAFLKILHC
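D2 cells co-treated with compound plus 50 nM dopamine (EC20) for 90 min at 37 deg C to detect potentiation. Beta-arrestin recruitment was read as enzyme-fragment luminescence after 1 h at ambient temperature. Full response was set by 57 uM dopamine.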
Six1-Eya2 inh = Six1/Eya2 interaction inhibition; Q15475+O00167; AlphaScreen GST-Six1/His-Eya2 binding, biochemical; hits give low values; control for the full effect not named in the record; activity change, % (concentration not given with the values); 0.56% of 360,000 active; AID 651725; in the data active = activity change below about -65%; inconclusive = about -30% to -65%; inactive = above about -30%; note: % is set by controls: 0 for no effect and ±100 for the full control effect
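GST-Six1 + His-Eya2 (5X stock: 250/500 nM); Tris pH 8.0, 300 mM NaCl, 0.05% BSA, 0.02% Tween 20; GSH donor/Ni acceptor beads; 1 h 37 °C dark; AlphaScreen readout.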
CtBP-E1A blk = blocks the CtBP interaction with E1A | AlphaScreen GST-E1A/His-CtBP binding, 1536-well; hits give low values; control for the full effect not named in the record | activity change, % (concentration not given with the values) | 0.49% of 340,000 active; in the data active means activity change below about -65%; inconclusive means about -30% to -65%; inactive means above about -30%; note: % is set by controls: 0 for no effect and ±100 for the full control effect
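AlphaScreen with 125 nM GST-E1A and 125 nM His-CtBP (5X stocks) in Tris pH 8.0, 300 mM NaCl, BSA, Tween 20, TCEP. Compounds preincubated 2 h at 37 deg C, then glutathione donor/nickel acceptor beads added for 1 h at 37 deg C in dark.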
PINK1 expr mod = changes PINK1 expression | PINK1 immunofluorescence, high-content cytometry, 24 h | Potency, µM (highest dose often 76.6 µM), inactives show top-dose activation (PINK1 increase), usual class: activators | 0.2% of 410,000 active; active = well fitted activation curve with a large enough effect; inconclusive = small, poorly fitted or top-dose-only effect; inactive = flat fitted curve, though single readings scatter; cell line not stated here;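 note: potency is the fitted concentration of half-maximal effect; % of control where 0% means no effect; nearly all actives have a fitted effect of over 65% in size; a mitochondrial uncoupler was the plate control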
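Measures PINK1 amount and localization on or inside mitochondria by immunofluorescence. Stable cells get compounds at 5 concentrations for 24 hours before fixation and staining; CCCP controls included.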
TRPML1 ag = activates the human TRPML1 channel; 0.12% of 410,000 active; activation, % (test concentration not listed); Q9GZU1; TRPML1-expressing cells, Ca2+ dye fluorescence, FDSS; host cell line not named in the record; reference of the full effect not given here; AID 624414; in the data active = activation above about 50%; inconclusive = about 30% to 50%; inactive = below about 30%; note: 0% is about no effect; the text of the record puts the active cut at 80%
Target sequence (Q9GZU1 whole entry, looked up): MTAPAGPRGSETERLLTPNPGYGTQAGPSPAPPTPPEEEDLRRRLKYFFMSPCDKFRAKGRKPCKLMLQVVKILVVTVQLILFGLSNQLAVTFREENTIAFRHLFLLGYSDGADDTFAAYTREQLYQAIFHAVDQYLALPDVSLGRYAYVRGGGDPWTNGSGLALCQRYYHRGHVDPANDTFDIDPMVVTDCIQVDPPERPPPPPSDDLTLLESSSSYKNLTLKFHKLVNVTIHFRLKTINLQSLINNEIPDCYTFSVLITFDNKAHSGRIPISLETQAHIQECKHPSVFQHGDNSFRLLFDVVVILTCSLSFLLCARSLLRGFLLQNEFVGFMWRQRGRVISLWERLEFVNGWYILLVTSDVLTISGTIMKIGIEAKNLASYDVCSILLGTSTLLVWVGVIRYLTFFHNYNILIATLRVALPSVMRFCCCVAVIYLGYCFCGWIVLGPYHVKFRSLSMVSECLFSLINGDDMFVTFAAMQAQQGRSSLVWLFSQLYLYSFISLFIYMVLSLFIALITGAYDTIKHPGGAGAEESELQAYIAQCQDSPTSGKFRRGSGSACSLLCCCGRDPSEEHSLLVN
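TRPML1-DL cells, Tet-induced overnight (~16 h, 37 degrees C), loaded 45-90 min at room temperature with Ca8 no-wash calcium dye plus quencher. FDSS fluorescence: 10 s baseline, compound pin-transfer, 110 s agonist read, then EC80 54-4 (4uM final) and 110 s antagonist read.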
D2 agonist = agonists of human D2 dopamine receptor (beta-arrestin); DiscoveRx PathHunter D2 beta-arrestin, luminescence, 90 min; 100% = 57 uM dopamine signal; activation, % (test concentration not listed); 0.084% of 360,000 active; P14416; in the data active = activation above about 40%; inconclusive = about 15% to 40%; inactive = below about 15%; note: compound concentration not given in the record; the text of the record calls up to 30% inactive
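DiscoveRx PathHunter D2 beta-arrestin cells (2,100/well) attached overnight, then compound-stimulated 90 min at 37 C in HBSS/10 mM HEPES/0.1% Tween-20 buffer; beta-galactosidase complementation read by luminescence after 1 h at ambient temperature. Dopamine 57 uM final (EC100) as control.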
Starred values were filed as active, the others as inactive; ? = inconclusive; . = not tested or not shown; [ ] = remark or other dose.

SMILES	D2 potentiator	Six1-Eya2 inh	CtBP-E1A blk	PINK1 expr mod	TRPML1 ag	D2 agonist
O=C(N/N=C/c1ccc[nH]1)c1c[nH]c2ccccc12	-12.6	-7.3	-24.0	1.3%	0.5	-3.0
COc1ccc(C(C)C)cc1S(=O)(=O)N1CCC(C(=O)NCc2cccnc2)CC1	-9.1	1.9	-0.1	0.4%	0.6	-1.5
C=C[C@]1(C)C=C2CCC3[C@](C)(CCC[C@@]3(C)C(=O)O)C2CC1 (some centres not stated)	-35.1	1.3	3.3	0.5%	.	3.6
COc1ccc2[nH]c(C)c(C(=O)CN3CC(C)OC(C)C3)c2c1 (configuration not stated)	-5.7	-9.1	-1.5	-1.0%	0.4	-5.1
CCOc1cc(NC(=S)NCCCN2CCOCC2)c(OCC)cc1NC(=O)c1ccc(OC)cc1	-12.8	-6.3	-3.2	-0.7%	-0.1	8.2
CN(C)C(=O)c1cc(Br)ccc1Cl	-1.3	3.8	-1.3	3.6%[38.3 µM]	-0.7	-4.5
Cc1ccc(C)c(Nc2nc3ccc(C)cc3n3cnnc23)c1	-2.1	-17.8	-9.5	10.3%	-0.2	-0.3
Cn1c(N)c(Br)c(-c2ccc(F)cc2)c(C#N)c1=O	-1.8	-4.3	-18.6	0.3%	-0.1	-1.1
COCCN(Cc1cccs1)S(=O)(=O)c1csc(C(N)=O)c1	1.2	4.4	.	1.7%	0.5	-2.7
COc1ccc(C(=O)C2CCCN(Cc3ccc(C#CCCO)cc3)C2)cc1F (configuration not stated)	-16.0	-4.7	18.4	1.2%	-0.4	-17.7
C/C(=C(\C#N)C(=O)NCCCN1CCOCC1)N(C)C	-15.8	1.0	6.2	0.0%	-0.9	-0.9
NCCC(=O)NCCc1cnc[nH]1	-6.5	1.7	12.6	-0.8%	0.1	-2.6
O=C(O)C1CC1C(=O)Nc1nc2c(Cl)cccc2s1 (configuration not stated)	-4.2	-0.7	.	-0.8%	3.8	-2.5
COc1ccccc1C(=O)NC(=O)COC(=O)c1cnc(C)cn1	-5.3	3.6	-20.9	-1.8%	-0.1	-0.7
O=C(COc1ncnc2cc(Cl)ccc12)c1ccccc1	-2.4	2.9	7.1	1.6%	1.4	-2.1

Entries of single compounds, looked up by structure. Order of screens: D2 potentiator, Six1-Eya2 inh, CtBP-E1A blk, PINK1 expr mod, TRPML1 ag, D2 agonist
C=C[C@]1(C)C=C2CCC3[C@](C)(CCC[C@@]3(C)C(=O)O)C2CC1 (some centres not stated) as listed: -35.1, 1.3, 3.3, 0.5%, ., 3.6
COc1ccc(C(C)C)cc1S(=O)(=O)N1CCC(C(=O)NCc2cccnc2)CC1 as listed: -9.1, 1.9, -0.1, 0.4%, 0.6, -1.5
COc1ccc2[nH]c(C)c(C(=O)CN3CC(C)OC(C)C3)c2c1 (configuration not stated) as listed: -5.7, -9.1, -1.5, -1.0%, 0.4, -5.1
C/C(=C(\C#N)C(=O)NCCCN1CCOCC1)N(C)C as listed: -15.8, 1.0, 6.2, 0.0%, -0.9, -0.9

Remaining list, next part:
SMILES	D2 potentiator	Six1-Eya2 inh	CtBP-E1A blk	PINK1 expr mod	TRPML1 ag	D2 agonist
Nc1ncnc2c1ncn2[C@@H]1O[C@H](CNCc2cn(CC(=O)NC3CC3)c3ccccc23)[C@@H](O)[C@H]1O	-3.6	-6.4	2.7	0.2%	0.3	-1.4
CCOC(=O)c1[nH]c2c(c1-c1ccccc1)C(=O)CC(c1ccc(OCC)cc1)C2 (configuration not stated)	-4.5	8.8	0.0	4.7%	-0.2	-0.1
COc1ccc(N2CCN(CC(O)COc3ccccc3[N+](=O)[O-])CC2)cc1 (configuration not stated)	-26.5	-7.3	6.1	2.1%	1.7	2.6
Cn1c(=O)n(C)c2cc(S(=O)(=O)NCCOCCO)ccc21	-5.2	9.0	4.2	-2.0%[38.3 µM]	-0.2	-2.2
CCOC(=O)c1cnc(-n2nc(C)cc2C)nc1NC1CCCC1	-16.6	-3.7	-8.8	11.1%	2.0	-2.7
O=C(Nc1nc(-c2ccc3ccccc3c2)cs1)C1CCN(S(=O)(=O)c2cccs2)CC1	0.4	0.3	-18.9	-1.3%	0.8	3.2
O=Cc1ccc2c(c1)OCCOCCOCCOCCO2	-5.8	-6.4	1.7	1.2%	-0.5	-9.7
COc1ccc(-c2cccc(NC(=O)c3ccco3)c2)nn1	-12.4	-26.9	-17.5	-1.2%	0.0	4.7
CCCCNC(=O)c1cc2c(C)cc(C)cc2[nH]1	-23.1	-5.0	1.4	0.1%	-1.6	-2.5
O=C(Nc1ccncc1)c1cn(-c2ccccc2)nc1-c1cccs1	-2.7	-2.6	-1.8	13.9%	0.2	8.2
Cc1cc(/C=C2\SC(=Nc3ccc(F)cc3)NC2=O)c(C)n1-c1ccc(S(N)(=O)=O)cc1	-6.4	-13.0	-17.4	-0.5%	1.2	-1.7
Cc1ccc(C(=O)N/C(=C\c2ccc([N+](=O)[O-])cc2)C(=O)NCCc2ccccc2)cc1	-11.2	1.9	5.7	4.0%[38.3 µM]	0.6	-2.5
CN(Cc1nc2ccc(F)cc2[nH]1)Cc1nc(CC2CC2)no1	-2.8	-0.2	2.6	1.6%	0.7	-1.9
O=C(C1CCN(S(=O)(=O)c2cnc[nH]2)CC1)N1CCc2ccccc2C1	-15.5	5.9	3.9	-0.6%	2.5	1.2
CN(C)C=NC1=NN(c2cccc(C(F)(F)F)c2)CC1	2.7	-10.8	-5.1	-0.5%	-0.2	2.5
CCCCCN(C(=O)CCC(=O)OCC(=O)Nc1cccc(SC)c1)c1c(N)n(CCCC)c(=O)[nH]c1=O	-37.0	-6.6	6.9	5.8%	-0.7	-6.4
COC(=O)c1ccc(COC(=O)CNC(=O)CNC(=O)c2ccc(OC)cc2)cc1	-2.8	2.0	-19.4	1.3%	1.1	-1.5
CCN(C[C@H]1N[C@@](Cc2ccccc2)(C(=O)OC)[C@H]2C(=O)N(C)C(=O)[C@@H]12)C(=O)COC	-7.7	0.5	-19.8	0.0%	-0.1	-2.5
COc1ccc(-c2cc(C(F)(F)F)nc(SCC(=O)N(C)Cc3cnn(C)c3C)n2)cc1OC	-22.6	-9.0	-3.3	9.8%	-1.1	0.5
CC1CCCCN1S(=O)(=O)c1ccc(C(=O)Nc2nnc(-c3ccccn3)o2)cc1 (configuration not stated)	-1.2	-7.5	-2.1	3.7%	-0.3	1.5
CCOc1ccc(CCNC(=O)COC(=O)c2ccc(OC(C)C)cc2)cc1OCC	1.5	16.4	-14.3	0.6%	0.2	-1.8
O=c1oc(-c2ccco2)nc2ccccc12	3.2	?	-21.1	-1.1%	-0.7	-1.8
Cc1cc2ccccc2c(=O)[nH]1	-5.5	0.8	5.7	.	-0.6	-0.5
COc1ccccc1NC(=O)C(C(C)C)N1C(=O)c2ccccc2C1=O (configuration not stated)	1.1	-2.2	-0.1	0.4%	0.7	-6.2
COc1ccc(Cl)cc1NC(=S)NCCSc1ccc(C)cc1	-25.3	-8.3	14.0	?	4.5	-2.9
O=Nc1c(O)n(Cc2ccc(Cl)cc2)c2ccccc12	-6.8	-4.1	-4.9	-1.6%	2.1	-4.1
Nc1nc(SCC(=O)Nc2ccccc2)[nH]c(=O)c1-c1ccccc1	-18.9	-2.7	-4.4	13.7%[38.3 µM]	0.3	-1.3
OCCN1CCN(C(=S)c2ccc(-c3ccccc3)cc2)CC1	-8.3	-3.7	-6.7	-1.7%	0.6	-1.3
Cc1ccc(OCC(=O)N2CCN(C(=O)c3cccc(F)c3)CC2)cc1	1.1	2.1	8.4	-0.7%	-0.5	3.9
COc1ccc(CN(CC2CCC(C(=O)O)CC2)C(=S)Nc2cccc(C)c2)cc1 (configuration not stated)	-12.1	0.6	0.0	-1.0%	-0.7	-0.6
Cc1ncc(CN2CCC(n3nccc3NC(=O)c3ccccc3)CC2)s1	-2.3	-0.1	6.1	-0.5%	0.8	-3.5
CC(C)N1CCN(Cc2ccccc2-c2ccco2)CC1CCO (configuration not stated)	-1.0	-7.7	0.4	-0.4%	0.7	-1.5
CCOc1ccc(C(=O)NCCN2CCCCC2)c(OCC)c1	-20.7	11.0	7.5	1.9%	0.2	0.9
N#CCCn1cc(/C=N/O)c(-c2ccc(Cl)cc2)n1	-5.7	-2.0	-2.7	2.4%[38.3 µM]	0.2	1.4
COc1cc(C(=O)NCCCN2CCCC2=O)cc(Br)c1OCc1ccccc1	1.3	-1.1	-6.5	-0.4%	1.1	-4.3
Cc1ccc(-c2ccccc2)n1-c1ccc(C(=O)O)cc1	-5.6	-7.9	.	-0.5%	0.3	2.0
CCc1nc2oc3ccccc3c(=O)c2c(=O)n1Cc1ccccc1	0.9	-5.2	-15.5	-1.9%	0.4	0.0
CCN(CC(=O)Nc1c(F)cccc1F)C(=O)CN1C(=O)NC2(CCCC2)C1=O	1.8	2.8	3.9	2.4%	-0.6	1.1
CCOc1cc(/C=N/NC(=O)c2ccncc2)ccc1OC(=O)c1ccccc1	4.1	-6.0	-18.7	0.5%	1.5	14.4
CC(=O)N1c2ccc(S(=O)(=O)NCCC(=O)Nc3ncccc3C)cc2CC1C (configuration not stated)	-6.8	1.8	0.3	-1.0%	0.5	-5.4
CCOn1c(=O)c(=O)n(OC)c2ccccc21	-16.6	-0.6	.	-0.3%	-0.4	-3.9
CCC1CCCCN1Cc1nc2c(c(=O)n(C)c(=O)n2C)n1CCC(C)C (configuration not stated)	-1.1	0.9	2.6	0.1%	0.0	-5.4
CCn1ccnc1CN(C)Cc1nc(Cc2cccc(C(F)(F)F)c2)no1	-12.4	4.4	13.9	1.3%	1.9	-1.4
CCOc1ccc(Cl)cc1/C=N/NC(=O)c1ccccc1	-11.2	2.0	-5.3	4.0%	0.7	-5.8
CN(C(=O)c1cccc(NC(=O)Cc2ccc(NC(=O)C3CCN(C(=O)CCc4ccccc4)CC3)cc2)c1)C1CCCCC1	.	-5.9	-3.3	-0.2%	0.1	1.7
O=C(CNC(=O)c1ccccn1)N=Nc1c(O)[nH]c2ccccc12	0.4	-10.6	-18.3	2.2%	1.8	6.5
c1ccc(Oc2ccc(-c3cc(NCCc4cccnc4)n4nccc4n3)cc2)cc1	-5.8	1.5	0.5	1.9%	-0.2	-4.7
CCOC(=O)c1cc(CC)sc1NC(=O)COC(=O)C1CCC1	-7.1	22.0	27.2	3.4%	1.2	-0.5
CC1C[N+](=C2C=C(N3CCOCC3)CC(C)(C)C2)CC(C)O1 (configuration not stated)	8.1	5.3	8.9	0.5%	-0.7	2.6
O=C(NCC(c1ccco1)N1CCc2ccccc2C1)C(=O)Nc1ccc(F)cc1F (configuration not stated)	-7.9	0.6	-2.9	-1.0%	1.3	-2.0
COc1ccc(C(=O)CC(=O)C(=O)Nc2ccc(OC)c(Cl)c2)cc1	-2.5	-8.7	2.3	0.2%	-0.9	-1.4
CC(C)(C)[C@@H]1COC(=O)[C@@H](NC(=O)OCC2c3ccccc3-c3ccccc32)C/C=C\C[C@@H](CC(=O)NCCO)C(=O)N1	-13.6	2.8	.	8.1%	-0.5	-3.2
CCOC(=O)N1CCN(C(=O)CSCc2ccc(Cl)cc2)CC1	14.0	-1.6	-0.3	-0.4%	2.5	3.2
